# Ab BasE inh: BasE siderophore biosynthesis inhibition | inhibition, % (concentration not given with the values) | purified BasE, fluorescence polarization binding displacement | 84,000 tested, 0.1% active;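 active = both replicates above 25% with normal brightness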;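 note: 0% = negative plate control signal and 100% = positive plate control signal; stock transfer was 100 nL into about 30 µL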
# KSHV LANA nucl: LANA-nucleosome interaction inhibition; FITC-LANA1-23 / chicken nucleosome fluorescence polarization; active compounds read low; z-score (no concentration beside the values); 51,000 tested, 0.3% active; AID 720717;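 active = both repeat wells score below -2 in polarization z-score versus plate sample wells, excluding overly bright wells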;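 note: 100 nL library stock added to about 30 µL; numbers are from one replicate; some results filed as inactive read as strong as hits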
#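 Assay system: purified chicken nucleosomes with FITC-labelled LANA N-terminal peptide (1-23) / Probe or stimulus: 50 nM FITC-LANA1-23 probe / Compound dosing: pin-transferred compound, 100 nL / Times: compound with peptide–nucleosome mix 10–45 min at room temperature / Technique: fluorescence polarization, 480 nm excitation, 535 nm parallel and perpendicular emission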
# Numbers without * were called inactive; . = not tested or not shown; & = joins results of further samples.
compound,Ab BasE inh,KSHV LANA nucl
Cc1nn2c3ccccc3nc2c2ccccc12,3.1,-0.11
Cc1cc(C)cc(NC(=O)COC(=O)C2CC3C=CC2C3)c1 (stereo not given),-1.0,.
O=C(NCCN1CCOCC1)c1ccc(-n2c(=S)[nH]c3ccccc3c2=O)cc1,-0.2,-0.087
CCOC(=O)/C(C#N)=C/c1ccc(OC)cc1OC,0.9,-0.065
Cc1noc(C)c1COC(=O)[C@@H](NC(=O)c1ccccc1)C(C)C,0.8,.
O=C1CN(C(=O)c2cccs2)c2ccccc2N1,0.1,-1.2
CC1C/C(=N\NC(N)=O)CC(C)(C)C1 (stereo not given),-3.3,1.9
COc1cccc(-n2ccn(CC(=O)NCCc3ccccc3)c(=O)c2=O)c1,0.2,0.43
Cc1nn(CC(O)Cn2c3c(c4ccccc42)CCN(C)C3=O)c(C)c1Br (stereo not given),-3.0,.
Cc1nn(S(=O)(=O)N(C)C)c(C)c1C,-0.9,-0.75
CC1(C)N=C(N)N=C(N)N1c1ccccc1,1.7,.
COC(=O)c1cc2c(cc1NC(=O)C1CCCN(S(=O)(=O)N3CCOCC3)C1)OCO2 (stereo not given),-1.2,0.92
O=C(Nc1ccc2c(c1)S(=O)(=O)c1cc(NC(=O)C3CCCCC3)ccc1-2)C1CCCCC1,1.4,.
CCN(CC)c1ccc(-c2n[nH]c(=S)n2-c2ccccc2)cc1,0.3,.
CN(C1CCCC1)C1CCN(C(=O)Nc2ccc(Cl)cc2)CC1,-2.6,0.46
CN1C(=O)/C(=C\c2ccc(-c3ccccc3C(=O)O)o2)C(=O)N(c2ccccc2)C1=S,-1.0,-0.68
Cc1oc(-n2c(C)cc(/C=C(\C#N)c3ccc4c(c3)OCO4)c2C)c(C#N)c1C,2.2,.
O=C(CN(C(=O)C1CSC(=O)C1)c1ccccc1F)NC1CCCC1 (stereo not given),-1.0,0.013
CCOC(=O)C1=C(CNCc2ccccc2Cl)NC(=O)NC1c1ccc2c(c1)OCO2 (stereo not given),-1.5,-0.86
CCCCN(CC)S(=O)(=O)c1ccc2[nH]c(=O)cc(C(=O)NCCN3CCN(c4ccccc4F)CC3)c2c1,2.4,-0.02
Cc1cc(C(=O)N2CCN(c3ccccc3)CC2)c(C)o1,0.9,.
O=C(CSc1ncnc2sccc12)c1ccc(S(=O)(=O)N2CCCC2)cc1,0.0,.
CCCNC(C)C(=O)Nc1ccccc1C (stereo not given),-1.2&-0.4,0.27&-1.6&0.4
O=C1CCCC2/C(=N/O)CCCC12 (stereo not given),2.1,-1
Cc1ccc(-n2ccnc2SCC(=O)c2ccc[nH]2)c(C)c1,-1.1,.
O=c1cc(CSc2nnc(-c3ccc4c(c3)OCO4)o2)nc2scc(-c3ccccc3)n12,-1.4,.
COc1ccc(P(=O)(CO)c2ccc(OC)cc2)cc1,-2.6,0.057
O=C(Nc1cccs1)Nc1cc(C(F)(F)F)ccc1N1CCCC1,.,-0.66
O=S(=O)(Nc1ccc(I)cc1)N1CCCCC1,1.8,-0.077
CCOc1ccc(N2C(=O)/C(=C/c3ccccc3)N(C)C2=S)cc1,1.6,.
O=C1CCC(C(=O)Nc2cc(F)cc(F)c2)=NN1,0.7,.
Clc1ccc(N2CCN(C3=Cc4ccccc4C3)CC2)cc1,0.3,.
Cc1cc(S(=O)(=O)NC2CCCCC2)ccc1OCC(=O)Nc1ccc2c(c1)OCO2,-0.7,0.88
COc1ccccc1N1CCN(C(=O)C(CC(C)C)NC(=O)C2CCC(C)CC2)CC1 (stereo not given),1.3,-0.24
Cn1c(-[n+]2ccccc2)c(/C=N/NC(N)=S)sc1=O,0.3,-0.22
CS(=O)(=O)Cc1cccc(C(=O)Nc2sccc2C#N)c1,-4.8,.
COC(=O)C(=C/C=C/c1cccs1)C(=O)OC,-5.6,1.9
O=c1oc(=O)c2nc3c(=O)oc(=O)c3cc12,0.6,.
CCCC1CCc2c(sc(NC(=O)OC)c2C#N)C1 (stereo not given),1.1,0.18
Cc1ccc(-n2nc(C(=O)Nc3cccnc3)c3c4ccccc4n(C)c3c2=O)cc1,2.8,0.63
Cc1ccc(OCCc2nc3ccccc3[nH]2)cc1,-2.2,-0.76
COc1cccc(C(=O)N2CC(C)OC(C)C2)c1 (stereo not given),0.4,-0.14
O=C(NCC1CCCO1)c1c(O)nc2sccn2c1=O (stereo not given),1.3,-0.94
CCOC(=O)C1CCCN1S(=O)(=O)c1cccc2nsnc12 (stereo not given),3.0,.
CN(C(=O)COn1nnc2ccc(S(=O)(=O)N3CCOCC3)cc21)c1ccccc1,-1.5,.
CCOC(=O)c1cnn(C(=O)OCC)c1N,0.9,-0.94
COc1ccc(/C=N/N=C(N)N)cc1OC,3.0,-1.1
O=C(O)CCCC(=O)N1CCN(C2c3ccccc3-c3ccccc32)CC1,.,-0.6
CCCN(C(=O)/C=C/c1ccc(S(=O)(=O)N(CC)CC)cc1)C1CCS(=O)(=O)C1 (stereo not given),4.0,.
O=C(NCc1ccco1)c1cccc(NC(=O)c2ccc(Br)cc2)c1,0.3,-0.34
O=c1[nH]c(CSc2nnc3n2CCCCC3)nc2scc(-c3ccccc3Cl)c12,-2.8,.
Cc1cc(C)nc(Nc2nc3ccccc3s2)n1,1.8,0.27
CC(C)(C)c1ccc(Oc2ccc(NC(=O)Nc3cccs3)cn2)cc1,-1.5,.
Cc1cc(C)c2nc(NC3=NC(c4ccccc4)CC(=O)N3)nc(C)c2c1 (stereo not given),-3.6,.
FC(F)(F)COc1ccc(OCC(F)(F)F)c(-c2ncn[nH]2)c1,.,-1.1
NS(=O)(=O)c1ccc(NC(=S)NC(=O)c2cccnc2)cc1,-1.1,0.17
CS(=O)(=O)N1CCCc2cc(Br)ccc21,0.7,-0.042
O=C(O)c1ccc(-c2ccc(C(=O)O)c(C(=O)O)c2)cc1C(=O)O,4.4,-0.36
O=C(NCC(c1ccco1)N1CCCC1)c1ccc(CSc2ncn[nH]2)cc1 (stereo not given),-3.4,.
O=C(CCc1ccccc1)NN1C(=O)c2ccccc2C1=O,0.1,0.42

# (more compounds)
compound,Ab BasE inh,KSHV LANA nucl
Cc1ccccc1-c1nnc(SCC(=O)NC(=O)Nc2ccccc2F)n1C,2.9,.
CCNS(=O)(=O)c1ccc(S(=O)(=O)N(Cc2ccccn2)C2CCCCC2)cc1,-1.6,-0.68
N#Cc1cn(C2CCN(Cc3ccccc3)CC2)c(=O)[nH]c1=O,0.1,0.86
Nc1cc(=O)[nH]c(=O)n1Cc1ccccc1,0.2,.
Fc1ccccc1N1CCN(Cc2nc(-c3ccc(Cl)cc3Cl)no2)CC1,-3.1,-0.33
O=C(CCc1ccc(S(=O)(=O)NCc2ccccc2)cc1)N1CCCC1,-1.6,0.71
CC(C)CNC(=O)c1ccccc1S(=O)(=O)N1CCCCC1,1.6,.
Cc1ccc(C(C)C)c(OCC(=O)Nn2c(=O)[nH]c3ccccc3c2=O)c1,1.9,.
O=C1CCCN1c1ccc(OC(F)(F)F)cc1,.,-0.43
COc1ccc(N/C(C)=C/C(=O)c2ccccc2)cc1,0.5,-0.32
CCN(CC)CCn1c(=S)[nH]c2cc(C(=O)N3CCCC3)ccc2c1=O,1.1,-0.95
O=C(CCN1CCOCC1)N1N=C(c2ccccc2)CC1c1ccco1 (stereo not given),-0.5,-0.33
Cn1ccc(NC(=O)NC(=O)c2c(F)cccc2F)n1,-0.5,.
CN(c1ccccc1C(=O)N1CCN(c2ccccc2F)CC1)S(=O)(=O)c1ccccc1,3.1,0.55
COC(=O)C#CCN1C(=O)c2ccccc2C1=O,0.3,-0.51
CC(C)CN1CCNCC1,3.2,.
COc1ccc(/C(C#N)=C\c2ccc(-c3ccccc3Br)o2)cc1OC,-4.1,-0.29
CCOC(=O)c1sc(NC(=O)c2c(C)nn(Cc3ccccc3)c2C)cc1C,-2.6,.
COc1ccc2nc(C)cc(N3CCC(C(N)=O)CC3)c2c1,5.9,.
O=C(Cc1ccccc1)N/N=C/c1ccc(N2CCOCC2)cc1,-2.6,.
CN1C(=O)CC(P(=O)(c2ccccc2)c2ccccc2)N(C)C1=O (stereo not given),-1.2,1
CC1CCN(C(=O)COc2ncnc3ccccc23)CC1,-2.6,.
C=CCNc1nc(NCCN2CCOCC2)nc(OC)n1,-1.5,0.29
COc1cc(C(=O)N2CCc3ccccc3C2)cc(NC(=O)c2ccco2)c1OC,4.5,.
N#Cc1nc(-c2ccccc2F)oc1NCCCN1CCOCC1,1.7,-0.63
Cn1c(=NC(=O)CCOc2ccccc2)sc2cc(Br)ccc21,2.6,.
CN1/C(=C\C=N\NC(=O)c2cccnc2)C(C)(C)c2ccccc21,2.1,.
COc1cc(SC)ccc1C(=O)NCc1ccccc1,-0.1,1.7
CC(C)(CC(=O)O)CC(=O)N1CCN(c2nc(-c3ccccc3)ns2)CC1,-0.9,-1.1
CCc1ccc2c(C)nc(NC3=NC(C)(C)C=C(C)N3)nc2c1,-11,.
Cc1ccc(C)c(S(=O)(=O)NCCCn2ccnc2)c1,1.4,.
NCCCCN=C(N)N,-2.1,-0.73
CSc1nnc(-c2nnc(SC)n2-c2ccccc2)n1-c1ccccc1,-1.6,-0.0045
O=C1NC(=O)/C(=C\c2cccc(C(F)(F)F)c2)S1,2.6,1.3
O=C(CSc1nc2sc3c(c2c(=O)n1Cc1ccco1)CCC3)Nc1nccs1,-0.2,1.6
O=C(CC1OC(=O)c2ccccc21)c1ccc(Cl)cc1 (stereo not given),.,0.7
CCC(C)Oc1c(Cl)cc(C#N)cc1OC (stereo not given),0.8,0.33
CC(C(=O)O)N1C(=O)CSC1=O (stereo not given),1.4,0.016
Cc1onc(-c2ccccc2Cl)c1C(=O)ONC1=NCCCC1,0.8,-0.37
COc1ccc(-c2nn3c(Cc4ccc(Cl)cc4)nnc3s2)cc1OC,-1.8,-0.27
CC(C)c1ccc(NC(=O)Cn2c(-n3ncc(N4CCOCC4)c(Cl)c3=O)nc3ccccc32)cc1,-0.4,.
O=C(NCC(=O)N1CCCc2ccccc21)C1CCCCC1,-0.8,.
Cc1ccc(NC(=O)c2ccc3c(c2)CCO3)cc1,-2.6,.
O=C(CC1C(=O)N(Cc2ccc(F)cc2)C(=S)N1Cc1ccco1)Nc1ccc(Cl)cc1 (stereo not given),-1.4,0.31
COc1cccc(NC(=S)N=S(C)(=O)c2ccccc2)c1 (stereo not given),2.2,.
COc1ccccc1C(=O)Nc1ccc(CN2CCCCC2)cc1,-5.1,1.6
N#Cc1cnc(Sc2nnc(-c3cccs3)n2-c2ccc(Cl)cc2)nc1N,2.1,0.13
CC(C)C(=O)Nc1cc(S(C)(=O)=O)ccc1Cl,2.7,.
CCCCCSc1ncnc2nc[nH]c12,-2.9,1.3
O=C(CN1CCCCCC1)Nc1ccc2c(c1)OC(F)(F)O2,-1.9,.
COc1ccc(N2CCN(C(C)C(N)=O)CC2)cc1 (stereo not given),1.3,.
COc1nnc(-c2ccc(C)c(S(=O)(=O)N(C)C)c2)c2ccccc12,1.1,.
O=C(/C=N/O)Nc1ccc2c(c1)OCO2,3.8,.
Cc1noc(C)c1CON=c1c(C)nc2ccccc2nc1C,0.6,.
Cn1c(=O)cc(SCC(=O)NCCCN2CCN(c3ccccc3F)CC2)c2cc(Cl)ccc21,-1.5,-0.25
O=C(COc1ccc(C2=NN(C(=O)c3cccs3)C(c3ccco3)C2)cc1)N1CCCCC1 (stereo not given),-1.6,1.5
Cc1ccc2c(CSCc3c(C)noc3C)cc(=O)oc2c1,-1.9,.
C=CCn1c(=O)c2ccccc2n2c(SCC(=O)c3ccc(Cl)cc3)nnc12,-0.7,.
O=C(NNc1cc(C(F)(F)F)ccc1Cl)c1ccc(=O)[nH]c1,-0.6,.
Cc1cc(C(F)(F)F)c(C#N)c(SCC(=O)c2ccc[nH]2)n1,9.8,.

# The list goes on.
compound,Ab BasE inh,KSHV LANA nucl
COc1cccc(NC(=O)COc2ccc(C(=O)N3CCN(C)CC3)cc2)c1,0.4,.
CCCc1nc2sc3c(Cl)ncnc3c2c2c1CCCC2,-1.0,.
O=C(Nc1nccs1)c1ccc(-c2ccccc2C(F)(F)F)o1,-3.5,-0.29
CC12CC3CC(C1)CC(CC(=O)O)(C3)C2,-0.4,-0.17
CCC1CCCCN1c1cc(=O)n2ccccc2n1 (stereo not given),0.8,.
O=C(OCCN1CCOCC1)c1ccc(O)cc1,2.4,.

# Molecules shown so far with a COOH group:
compound,Ab BasE inh,KSHV LANA nucl
CN1C(=O)/C(=C\c2ccc(-c3ccccc3C(=O)O)o2)C(=O)N(c2ccccc2)C1=S,-1.0,-0.68
O=C(O)CCCC(=O)N1CCN(C2c3ccccc3-c3ccccc32)CC1,.,-0.6
O=C(O)c1ccc(-c2ccc(C(=O)O)c(C(=O)O)c2)cc1C(=O)O,4.4,-0.36
CC(C)(CC(=O)O)CC(=O)N1CCN(c2nc(-c3ccccc3)ns2)CC1,-0.9,-1.1
CC(C(=O)O)N1C(=O)CSC1=O (stereo not given),1.4,0.016
CC12CC3CC(C1)CC(CC(=O)O)(C3)C2,-0.4,-0.17

# Screening results deposited in PubChem by ICCB-Longwood Screening Facility, Harvard Medical School.

# This is a subset, so the mix of outcomes need not match the whole.
